FGF22 binding: shifts melting point of recombinant human FGF22; actives 1.5% (n = 340,000); Q9HCT0; calls only at 9.99 µM; recombinant FGF22 thermal shift, SYPRO orange fluorescence; percent of sucrose octasulfate shift, DMSO zero; AID 651658;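 active = melting point raised past a set limit in the mean and every replicate; inconclusive = no clear call; three in four hits are not shown here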
Target sequence (Q9HCT0 whole entry, looked up): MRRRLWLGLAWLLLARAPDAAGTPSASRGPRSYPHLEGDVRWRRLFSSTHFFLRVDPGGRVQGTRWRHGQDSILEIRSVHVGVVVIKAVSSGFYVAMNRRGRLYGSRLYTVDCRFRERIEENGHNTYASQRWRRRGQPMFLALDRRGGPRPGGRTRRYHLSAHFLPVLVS
RanGTP-Imp inh: inhibitors of RanGTP-importin-beta interaction, primary screen, biochemical, FRET, CFP-Ran, YFP-importin-beta, homogeneous | actives 1.1% (n = 300,000) | cell-free CFP-Ran/YFP-importin-beta FRET ratio | AID 2216 | inhibition, % (concentration not given with the values);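 active = most replicates above 15%; inconclusive = exactly half above 15%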;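 note: 0% = DMSO wells and 100% = Ran loaded with GDP instead of GTP; wells of about 40 µL received 100 nL stock; the first replicate is given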
ALR inh: human ALR oxidase inhibition via reduced H2O2; P55789; purified ALR, DTT oxidation, H2O2 HRP-luminol luminescence; inhibition, % (concentration not given with the values); actives 3.8% (n = 290,000); AID 485317;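 active = mean and each replicate at 75% or more; inconclusive = only one of the two met; inactive = neither met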;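 note: stock transfer was 7.5 nL into about 7.5 µL; 0% = neutral wells and 100% = wells with inactivated enzyme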
Target sequence (P55789 whole entry, looked up): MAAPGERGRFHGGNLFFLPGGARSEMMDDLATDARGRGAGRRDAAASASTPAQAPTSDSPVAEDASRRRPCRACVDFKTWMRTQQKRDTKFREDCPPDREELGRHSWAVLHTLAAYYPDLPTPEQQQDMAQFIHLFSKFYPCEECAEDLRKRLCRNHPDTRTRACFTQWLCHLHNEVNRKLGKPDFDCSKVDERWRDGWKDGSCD
rRNA inh HTS: selective bacterial rRNA inhibition in E. coli; E. coli WT GFP vs humanized-ribosome RFP mutants, fluorescence, 24 h; stronger effect = lower value; DMSO median 0, no signal -100; GFP signal change (wild-type ribosome), % (concentration not given with the values); actives 1.6% (n = 350,000); AID 720706;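 active = significant combined selectivity score with lowered wild-type GFP, culture density cut under 30%, mutant RFP and density less affected; inactive = any of these conditions unmet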; note: one replicate is shown; some compounds called inactive have numbers as strong as hits
Beta apoptosis: beta cell apoptosis inhibition; INS-1E cytokine-induced death, ATP luminescence, 48 h; percent of positive-control rescue, neutral wells zero; protection from apoptosis, % (test concentration not listed); actives 0.8% (n = 300,000);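 active = all replicates at 75% or more, or half of them and the mean; inconclusive = half reach 75% but not the mean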;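 note: 0% = cytokine-treated negative control wells and 100% = positive control rescue; higher means more ATP so stronger rescue from cytokine killing; wells of about 40 µL received 100 nL stock; the first replicate is given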
AF4-AF9 inh: blocks AF4 peptide binding to human AF9. actives 0.47% (n = 350,000). AlphaScreen, biotin-AF4 peptide binding to FLAG-AF9. AID 651704. P42568. inhibition, % at 10 µM;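 active = every replicate reaching a set inhibition limit, whatever the replicate mean, cut at about 25% in these data; inconclusive = mean inhibition reaches that limit but some replicates miss it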;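 note: 0% = plate neutral control median and 100% = total signal loss; the record names both 10 and 1 µM as test concentration; the first replicate is given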
Target sequence (P42568 whole entry, looked up): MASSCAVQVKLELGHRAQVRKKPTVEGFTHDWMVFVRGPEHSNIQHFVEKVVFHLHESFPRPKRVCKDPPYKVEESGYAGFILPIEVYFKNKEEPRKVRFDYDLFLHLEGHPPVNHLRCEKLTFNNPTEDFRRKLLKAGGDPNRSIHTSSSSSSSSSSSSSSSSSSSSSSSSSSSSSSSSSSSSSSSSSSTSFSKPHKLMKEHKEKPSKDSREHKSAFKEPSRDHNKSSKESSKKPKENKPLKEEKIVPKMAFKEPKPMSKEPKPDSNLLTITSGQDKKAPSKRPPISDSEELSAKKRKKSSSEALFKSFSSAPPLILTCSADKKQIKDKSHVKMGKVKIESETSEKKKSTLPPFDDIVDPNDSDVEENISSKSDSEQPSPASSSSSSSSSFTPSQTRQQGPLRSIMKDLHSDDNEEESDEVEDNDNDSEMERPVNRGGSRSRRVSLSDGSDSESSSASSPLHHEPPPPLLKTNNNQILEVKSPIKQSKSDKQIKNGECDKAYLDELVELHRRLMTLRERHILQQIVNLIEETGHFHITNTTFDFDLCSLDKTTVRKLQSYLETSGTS
Calb FLC: affects C. albicans growth with fluconazole | actives 0.57% (n = 300,000) | growth inhibition, % (test concentration not listed) | AID 1979 | C. albicans CaCi-2 (fluconazole-resistant clinical isolate) + fluconazole, Alamar Blue growth, 48 h;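 active = most replicates above 75%; inconclusive = exactly half above 75%; inactive = most below 75%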;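 note: all wells also contain fluconazole at 8 µg/ml as a sub-toxic cotreatment; 0% = median of DMSO wells and 100% = median of geldanamycin control wells; wells of about 8 µL received 7.5 nL stock; the first replicate is given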
T cruzi repl: blocks replication of Trypanosoma cruzi | T. cruzi beta-gal in NIH3T3, luminescence, 90 h | inhibition, % (test concentration not listed) | actives 1.4% (n = 300,000);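 active = mean inhibition across valid replicates above about 55%, limit read from the data; inconclusive = mean below that limit but half or more replicates reach it; inactive = mean below it, under half of replicates reach it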;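 note: signal also drops with host cell toxicity which is not excluded here; 0% = plate median of DMSO wells and 100% = zero luminescence signal; higher percent means less beta-gal luminescence so fewer parasites; stock transfer was 50 nL into about 50 µL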
rRNA inh HTS OD600: also measured in rRNA inh HTS; calls as there; OD600 change, %; measured here: OD600 growth;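 optical density of the mix in the first replicate; 0 = DMSO median and -100 = no signal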
rRNA inh HTS RFP: second read-out of rRNA inh HTS, no call of its own (marks repeat the call); RFP signal change, %; measured here: RFP humanized mutant strains;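 first replicate; 0 = DMSO median and -100 = no signal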
* marks the source's active call; other numbers are inactive results; i = inactive; ? = inconclusive; . = not tested or not shown.

The line under a structure holds: FGF22 binding	RanGTP-Imp inh	ALR inh	rRNA inh HTS	rRNA inh HTS OD600	rRNA inh HTS RFP	Beta apoptosis	AF4-AF9 inh	Calb FLC	T cruzi repl
- COc1ccccc1CN1CC(C(=O)NCCCc2ccc(F)cc2)CCC1=O (centres undefined)
→ i	4.0	22	-3	-6	0.6	4	42*	8	-3
- Cc1cccc2sc(NC(=O)C3=NN(c4ccccc4)C(=O)CC3)nc12
→ i	-0.9	-5	3	8	0.7	3	-2.3	-2	-2
- COCCn1c(=O)[nH]c2cc(C(=O)OC)ccc2c1=O
→ .	-4.0	0	.	.	.	1	.	-10	-6
- Cn1c(C(=O)N2COCC2(C)C)cc2c(=O)n3ccccc3nc21
→ .	5.6	.	.	.	.	-3	.	7	-18
- O=C1CCCc2nc(N3CCCCC3)sc21
→ .	4.3	-6	.	.	.	0	.	-2	-6
- N#C/C(=C/C=C/c1ccccc1)C(=O)Nc1ccccc1
→ i	4.5	-3	24	18	-2.0	4	-11	-4	69*
- Cc1ccc(CSc2ccc(C(=O)N3CCOCC3)cc2[N+](=O)[O-])cc1
→ i	1.1	-5	7	21	-1.1	-13	4.1	-14	-30
- CCN(CC(=O)Nc1cc(Cl)ccc1C)C(=O)c1cc([N+](=O)[O-])ccc1N1CCOCC1
→ i	.	0	-10	-4	-1.5	4	-2.2	-9	1
- CCOc1c(Cl)cc(CNCC(C)C)cc1OC
→ .	-0.6	2	.	.	.	-4	.	-12	16
- C=CCN(C(=O)Cn1nc(C)n2c(cc3cc(C)ccc32)c1=O)c1ccccc1
→ i	7.3	-3	-11	0	-2.1	10	0.9	3	15
- O=C(/C=C/Nc1ccc(F)cc1)c1ccco1
→ .	9.6	-9	.	.	.	-7	.	3	-6
- CCOC(=O)c1cc(C#N)c(SC)nc1C
→ i	17	-1	2	2	0.5	.	.	-6	.
- COc1ccc(/C=N/NC(=O)c2cccnc2)c(C(=O)O)c1OC
→ i	4.1	-1	9	6	-0.1	2	2.6	-2	4
- Cc1ccc(F)cc1NC(=O)CSc1nnc(CNC(=O)c2ccco2)n1C
→ i	-0.2	2	11	10	-2.6	.	-25	-3	-5
- CC1(C)Oc2ccc(C(=O)NC3CCCC3)cc2N(CC(=O)NC2CCCCC2)C1=O
→ .	2.4	-3	.	.	.	-1	.	28	6
- COc1ccccc1CC(=O)Nc1ccc(-c2nnc(-c3ccco3)o2)cc1
→ .	-3.1	-5	.	.	.	-2	.	2	15
- Cc1sc2nc(-c3ccco3)oc(=O)c2c1C
→ .	3.3	5	.	.	.	1	.	2	-4
- Cc1cc(O)c(-c2cc(C(=O)Nc3ccc(S(=O)(=O)N4CCOCC4)cc3)[nH]n2)cc1C
→ .	6.6	39	.	.	.	4	.	-6	-12
- CCc1ccc(N(C(=O)c2csnn2)C(C(=O)NC2CCCCC2)c2cccnc2)cc1 (centres undefined)
→ i	5.8	.	7	7	-0.9	3	-2.7	2	-1
- CCOC(=O)CCC(=O)Nc1ncnc2c1C(c1ccccc1)c1c(ccc3ccccc13)O2 (centres undefined)
→ i	.	-2	-2	3	6.4	-2	4.0	.	.

(cont.)
The line under a structure holds: FGF22 binding	RanGTP-Imp inh	ALR inh	rRNA inh HTS	rRNA inh HTS OD600	rRNA inh HTS RFP	Beta apoptosis	AF4-AF9 inh	Calb FLC	T cruzi repl
- Cc1ccnc(NS(=O)(=O)c2ccc(NC(=O)c3cncc(Br)c3)cc2)n1
→ .	3.1	-4	.	.	.	-1	.	-3	-3
- CCC(CC)C(=O)Nc1cccc(C(=O)NCCc2ccccc2)c1
→ i	-0.8	.	-3	-7	-0.7	8	-1.2	-34	-2
- Cc1cccc(NC(=O)CSc2ccc(-c3cccs3)nn2)c1C
→ .	?	-1	.	.	.	2	.	?	-23
- CN1CCc2c(sc3nc(SCC(N)=O)n(-c4ccccc4)c(=O)c23)C1
→ .	8.3	-17	.	.	.	-2	.	-4	16
- COc1ccccc1NC(=O)Cc1noc(CSc2cc(C)c3ccccc3n2)n1
→ .	4.8	.	.	.	.	-5	.	40	-8
- COc1cc(/C=C2/SC(=S)N(Cc3ccccc3)C2=O)cc(OC)c1O
→ i	-21	20	8	12	34	-3	7.1	12	-6
- COc1cc(CCC(=O)OCC(=O)N(CCC#N)c2ccccc2)cc(OC)c1OC
→ i	5.2	-5	8	-1	-0.5	-2	-1.6	1	-12
- O=C(Nc1ccc(Br)cc1)C1CCCC1
→ i	4.0	-9	12	4	0.8	-4	2.9	-1	8
- O=C(Nc1ccc(Cl)c(Cl)c1)N1CCCCCC1
→ i	4.9	-10	4	-1	2.5	-2	-3.5	3	-8
- Fc1cccc(NC(=S)NC2CCCCCCC2)c1
→ i	.	6	-52	-83	-17	6	-0.7	-34	.
- O=C(Cn1ccc(NC(=O)OCc2ccccc2)nc1=O)NCCCN1CCCC1=O
→ i	.	1	4	9	-2.1	-1	2.0	.	.
- Cc1nc2cc(C(=O)OCC(=O)NC3CCS(=O)(=O)C3)ccc2n1-c1ccccc1 (centres undefined)
→ .	0.8	2	.	.	.	-6	.	-7	5
- CSc1ncccc1C(=O)NCC12CC3CC(CC(C3)C1)C2
→ i	-0.7	1	-17	-21	-3.9	.	-1.0	5	26
- CC1(C)CC(=O)C2=C(C1)N(c1ncn[nH]1)C(N)=C(C#N)C2c1ccccc1 (centres undefined)
→ i	4.1	4	-22	-34	-10	10	-0.5	10	-12
- O=C(O)C1CSC(c2ccco2)N1 (centres undefined)
→ .	3.4	-6	24	23	6.9	-1	-11	1	-7
- Cc1cccc(NC(=O)CCN2CCN(C)CC2)c1
→ i	0.8	-11	9	13	-3.1	-2	1.3	6	-7
- C=CCSc1nc(N)c2c3c(sc2n1)CN(C)CC3
→ i	19*	-10	5	-1	0.9	2	3.9	-23	11
- O=C(NCC(=O)N1CCN(c2ccccc2)CC1)c1ccc(Cl)cc1
→ i	?	4	8	12	-1.9	-3	-3.1	9	4
- O=C(O)c1ccc(Oc2ccc(C(F)(F)F)cn2)cc1
→ i	0.4	-6	4	0	-4.3	.	-2.1	7	-7
- COc1ccc(C)cc1S(=O)(=O)N(CC(=O)O)c1ccc(F)cc1
→ .	-1.4	.	.	.	.	-11	.	3	3

Retrieved one by one from above (2):
The line under a structure holds: FGF22 binding	RanGTP-Imp inh	ALR inh	rRNA inh HTS	rRNA inh HTS OD600	rRNA inh HTS RFP	Beta apoptosis	AF4-AF9 inh	Calb FLC	T cruzi repl
- COc1ccc(C)cc1S(=O)(=O)N(CC(=O)O)c1ccc(F)cc1
→ .	-1.4	.	.	.	.	-11	.	3	3
- COc1cc(CCC(=O)OCC(=O)N(CCC#N)c2ccccc2)cc(OC)c1OC
→ i	5.2	-5	8	-1	-0.5	-2	-1.6	1	-12

Further records
The line under a structure holds: FGF22 binding	RanGTP-Imp inh	ALR inh	rRNA inh HTS	rRNA inh HTS OD600	rRNA inh HTS RFP	Beta apoptosis	AF4-AF9 inh	Calb FLC	T cruzi repl
- CCc1nccn1S(=O)(=O)c1ccc(OC)c(C)c1C
→ .	?	-1	.	.	.	-9	.	-7	-5
- COC(=O)c1ccc(S(=O)(=O)N(C2CCCCC2)C2CCCCC2)n1C
→ i	1.3	.	-5	6	6.1	.	.	3	11
- COC(=O)c1nn(-c2ccccc2)c(Cl)c1/C=N/O
→ i	0.9	-14	-1	-1	-6.1	2	-3.4	?	1
- O=C(CNC(=S)N(Cc1ccccc1F)C1CCCCC1)NC1CC1
→ .	0.9	-3	.	.	.	2	.	-2	-6
- CCCCSc1cc(=O)[nH]c(N)n1
→ i	-2.7	-1	3	0	-5.4	-2	10	-1	5
- CCOC(=O)c1ccc(NC(=O)CSc2ccc(-c3ccccn3)nn2)cc1
→ i	1.1	-4	1	9	-1.3	5	-1.6	0	34
- COC(=O)c1ccc2nc(Nc3nc4c(F)cc(F)cc4s3)sc2c1
→ i	71*	.	.	.	.	-4	1.9	6	-19
- C/C(=N\NC(=O)c1cccnc1)c1ccc(C)c([N+](=O)[O-])c1
→ i	1.0	-2	17	22	-0.9	-1	-1.0	2	-5
- CC(=O)Nc1ccc(NC(=O)Cn2cc3c(n2)CCCC3)cc1
→ .	2.1	-3	.	.	.	-5	.	4	18
- CCC(C)NC(=O)C1CC(=O)N(CCc2ccc(F)cc2)C1 (centres undefined)
→ i	0.6	-1	2	-1	0.2	-5	-1.9	-3	-18
- COc1ccc(C2CC(=O)Oc3c(C(CCN4CCCCC4)c4ccc(N(C)C)cc4)c(OC)cc(OC)c32)cc1 (centres undefined)
→ i	-0.6	.	6	16	6.2	-3	44*	-7	9
- COc1c(CC=C(C)C)cc(C2CC(=O)c3c(O)cc(O)cc3O2)cc1CC=C(C)C (centres undefined)
→ i	-1.5	1	.	.	.	108*	5.3	-7	32
- CCOc1ccc(CCNC(=O)COC(=O)Cc2ccc(OC)c(OC)c2)cc1OCC
→ i	-2.8	.	7	-1	-1.3	-4	-0.6	9	-6
- NC1=NC(c2ccc(Br)cc2)n2c(nc3ccccc32)N1 (centres undefined)
→ i	3.8	-3	-62	-81	-19	3	4.7	5	-22
- O=C(O)CN1C(=O)COc2cc(S(=O)(=O)N3CCCC3)ccc21
→ i	6.3	.	13	16	1.3	-9	2.7	-1	-3
- COc1ccc(Cl)cc1NC(=O)C1CSC(c2ccncc2)=N1 (centres undefined)
→ i	-0.5	15	4	7	-1.0	-5	-1.6	2	34

Some of these compounds in order of the rRNA inh HTS RFP value, smallest number first:
SMILES	rRNA inh HTS RFP
NC1=NC(c2ccc(Br)cc2)n2c(nc3ccccc32)N1 (centres undefined)	-19
COC(=O)c1nn(-c2ccccc2)c(Cl)c1/C=N/O	-6.1
CCOC(=O)c1ccc(NC(=O)CSc2ccc(-c3ccccn3)nn2)cc1	-1.3
O=C(O)CN1C(=O)COc2cc(S(=O)(=O)N3CCCC3)ccc21	1.3
COC(=O)c1ccc(S(=O)(=O)N(C2CCCCC2)C2CCCCC2)n1C	6.1
COc1ccc(C2CC(=O)Oc3c(C(CCN4CCCCC4)c4ccc(N(C)C)cc4)c(OC)cc(OC)c32)cc1 (centres undefined)	6.2

High-throughput results (PubChem)

The list is partial; rates above refer to the full screens.
